Bioassay records from PubChem BioAssay.
VACV Venus inh – vaccinia inhibition (Venus reporter); 330,000 compounds, 0.46% hits; Vaccinia virus Venus reporter expression, fluorescence; AID 720580; Potency, µM (highest dose often 36.5 µM), for the others: at the highest dose activity change, negative = inhibition, hits mostly inhibitors; active means well fitted inhibition curve with a large enough effect; inconclusive means small, poorly fitted or top-dose-only effect; inactive means no such curve, though single readings can be large or run the other way; tested in A549 cells; also: nearly all actives have a fitted effect of over 30% in size; inactives centre near -10
VACV mCherry inh – inhibitors of vaccinia virus infection (mCherry reporter signal); Vaccinia virus mCherry reporter infection, fluorescence; about a quarter of the inactives have no number; Potency, µM (highest dose often 36.5 µM), without a hit: at the top dose activity change, negative = inhibition, most hits filed as inhibitors; 310,000 compounds, 0.63% hits; AID 720579; active = well fitted inhibition curve with a large enough effect; inconclusive = small, poorly fitted or top-dose-only effect; inactive = no such curve, though single readings can be large or run the other way; tested in A549 cells; also: nearly all actives have a fitted effect of over 35% in size; inactives centre near -10
* = called active by the depositor; i = inactive; ? = inconclusive; . = not tested or not shown; & = joins results of further samples; [ ] = dose if it differs, or a comment. % is scaled to controls: 0 for no effect and ±100 for the full control effect; potency is read from the fitted curve at half-maximal effect.

Structure	VACV Venus inh	VACV mCherry inh
COc1cc(/C=N/NC(=O)C(=O)NCc2ccco2)ccc1O	-2.4%	i
C=C1CC(C(=O)N/N=C/c2ccccc2)C1	-11.5%	-1.3%
Nc1nc(SCC(=O)C23CC4CC(CC(C4)C2)C3)n[nH]1	-14.2%	i
CCOC(=O)c1cc(CC)sc1NC(=O)COC(=O)c1cnccn1	-7.2%	-21.6%
O=C(Nc1cc(C(F)(F)F)ccc1N1CCCCC1)C1=COCCO1	-14.2%	-13.4%
O=C(NCC(=O)N1CCCC(C(F)(F)F)C1)c1ccc(Br)o1 (centres undefined)	-12.2%	-6.7%
COC(=O)N1CCCCC1c1cc(C(=O)Nc2ccc(OC)cc2C)no1 (centres undefined)	-9.1%	37.3%[activator]
O=C(CSc1nnc(-c2ccc(Cl)cc2)o1)N1CCOCC1	-8.8%	i
CN(Cc1ccccc1)C(=O)c1csc([C@@H]2O[C@H](CO)[C@H](O)[C@H](O)[C@H]2O)n1	0.6%	i
CCN(CC(=O)NCc1ccc(Cl)cc1)C(=O)c1cc(OC)cc(OC)c1	-22.1%	?
O=C1CCCN1c1ncc(S(=O)(=O)c2ccc([N+](=O)[O-])cc2)s1	?	11.2µM*
O=C(c1ccco1)N1CCN(Cc2cc(=O)c(OCc3c(F)cccc3Cl)co2)CC1	-15.0%	-14.1%
Cc1nn(C)c(C)c1NC(=S)Nc1ccc(S(=O)(=O)Nc2ncccn2)cc1	1.8%	0.5%
COc1ccc(Br)cc1CN(C)CC(=O)Nc1ccccc1Cl	-3.5%	i
O=C(CN1CCCC1=O)NC1(C(F)(F)F)NC(=O)N(Cc2ccccc2)C1=O (centres undefined)	-17.8%	-0.5%
CC(C)=CCc1c(-c2ccc(O)cc2O)oc2cc3c(c(O)c2c1=O)C=CC(C)(C)O3	24.1%	-2.0%
C=C[C@@H]1c2ccccc2N(S(=O)(=O)c2ccc(C)cc2)[C@H](c2ccc(C(=O)OC)cc2)C1(C#N)C#N	-20.5%	-14.8%
N#Cc1ccc(NC(=O)COC(=O)c2cccnc2Cl)cc1	-9.8%	i
CCOC(=O)Cc1csc(NC(=O)CSc2nc(C)cc(C)n2)n1	-10.0%	-17.5%
Cc1ccc(-n2nnnc2SCC(=O)N2CCc3ccccc3C2)c(C)c1	-11.9%	-15.8%
COc1cccc(C2NC(=O)c3sc(=S)n(-c4ccccc4)c3N2)c1 (centres undefined)	-14.8%	.
Cc1ccc(-c2ocnc2C(=O)Nc2ccccc2NC(=O)c2ccccn2)cc1	-11.6%	-19.8%
COc1cccc(NC(=O)c2ccc3c(O)c(S(=O)(=O)c4ccccc4)c(=O)[nH]c3c2)c1	-4.5%	-12.7%
Cc1nc(SCC(=O)Nc2ccc(C)c(Cl)c2)cc(-c2ccccc2)n1	-10.5%	-12.4%
CC(C)CCN=Cc1c(O)n(-c2ccccc2)c(=O)c2ccccc12	-11.7%	-3.9%
COc1cccc(-c2cn3c(n2)sc2cc(C(=O)NCc4ccccc4F)ccc23)c1	-12.8%	-8.7%
COc1cccc(CN(C)CC2CCCN(CCc3ccc(Cl)cc3)C2)c1OC (centres undefined)	-15.3%	-26.7%
COc1ccc(CN2C(=O)C(=O)N(CC(N)=O)C2=O)cc1	-13.1%	i
Cc1cc(-c2ccccc2)nc(N/N=C/c2cccnc2)n1	-0.2%	-9.4%
O=C1C(C2=NC(c3ccccn3)C3C(=O)N(c4ccc(OC(F)(F)F)cc4)C(=O)C23)=C(O)c2ccccc21 (centres undefined)	-3.6%	i
COc1ccc(C(C)(NC(C)=O)c2nc(/C=C/c3ccccc3)cs2)cc1 (centres undefined)	-6.4%	i
O=C(C1CC1)N1N=C(C2CCCCC2)CC1(O)C(F)(F)F (centres undefined)	-15.7%	-13.8%
Cc1cc(NC(=O)CSc2nnc(-c3cccs3)n2N)no1	-22.1%	.
COc1ccc(OC)c(CNC(=O)NCc2noc3ccc(C)cc23)c1	4.5%	-1.6%
CCCCn1c(CCNC(=O)c2ccc(F)cc2)nc2ccccc21	-0.8%	-4.2%
CNC(=O)c1ccsc1NC(=O)c1ccc(S(=O)(=O)N2CCc3ccccc32)cc1	-17.6%	i
CCn1c2ccccc2c2cc(NC(=O)c3ccco3)ccc21	?	?
CN(C)S(=O)(=O)c1cccc(NC(=O)CN2C(=O)NC(Cc3c[nH]c4ccccc34)C2=O)c1 (centres undefined)	-26.6%	?
Cc1ccccc1OCCC(=O)N1CCN(S(=O)(=O)c2ccc(F)cc2)CC1	-13.5%	-3.0%
CC(CCn1cccn1)NC(=O)CCc1nnc(CCc2ccccc2)o1 (centres undefined)	3.0%	i
Cc1ccc2c(c1)/C(=C/c1ccccc1C)C(=O)N2	?	-19.4%
CC(C)c1ccc(NC(=O)C(c2ccccc2)N(Cc2ccco2)C(=O)CC2NC(=O)NC2=O)cc1 (centres undefined)	-17.1%	i
OCc1cc(Br)ccc1OCc1nc2ccccc2s1	-11.1%	-9.5%
COC(=O)c1sc(S(=O)(=O)NCCCN(C)C)c(C(=O)OC)c1C	-3.4%	i
Cc1ccc(C(=O)COC(=O)CNC(=O)c2cccs2)cc1	7.7%	-7.1%
CN1CC(=O)N(CC(=O)Nc2ccc(OCc3ccccc3)cc2)C1=O	-1.2%	-0.8%
c1ccc(-c2nn(-c3ccccc3)[n+](-c3ccccc3)n2)cc1	-11.3%	-6.0%
N#CC(C(=O)C12CC3CC(CC(C3)C1)C2)c1nc2ccccc2[nH]1 (centres undefined)	?	.
CC(C)(C)OC(=O)N1CCC(c2c(C(=O)N3CCN(C(=O)c4ccco4)CC3)cnn2-c2ccc(Cl)cc2)CC1	-1.0%	-12.7%
O=c1c(O[C@H]2O[C@@H](CO)[C@H](O)[C@@H](O)[C@@H]2O)c(-c2ccc(O)cc2)oc2cc(O)cc(O)c12	-7.4%	i
Cc1nc2c(OCc3ccc(F)cc3)cccn2c1N(C)C(=O)CCC1CCCC1	-21.7%	-14.6%
CCCCCCCCCCn1c2c(c(=N)c3c1CCC3)CCC2	10µM*	12.6µM*
CC(C)N(C(=O)[C@H]1CC(CC(=O)NC(C)(C)C)C(=O)N2CCc3c([nH]c4ccccc34)[C@]12C)C(C)C (some centres undefined)	?	-28.3%
Cc1ccc(NC(=O)Nc2nnc([C@H]3C[C@H](O)[C@@H](CO)O3)s2)cc1	5.7%	29.5%
CS(=O)(=O)N1CCC(C(=O)NCc2ccc(Cl)cc2)CC1	-4.2%	-8.6%
Cc1nc(N2CCCC2)ncc1C(=O)NCc1ccc(Cl)cc1	?	?
COc1ccc(CNC(=O)C2Cc3c(-c4ccc5c(c4)OCO5)ccnc3O2)cc1OC (centres undefined)	-17.0%	-13.0%
COc1nc(Nc2ccc([N+](=O)[O-])cc2)nc(NC2CCCCC2)n1	?	-15.6%
C[C@H](CO)N1C[C@H](C)[C@@H](CN(C)Cc2ccc(F)cc2)Oc2ncc(Br)cc2C1=O	-9.6%	-14.0%
CCOC(=O)C1CCN(C(=O)COC(=O)c2nn(C)c(=O)c3ccccc23)CC1	-14.0%	-14.7%

The results go on:
Structure	VACV Venus inh	VACV mCherry inh
O=C(CSCc1ccc(Br)cc1)Nc1ccccc1C(=O)N1CCOCC1	-12.9%	-0.3%
COC/C=C1\CN2C3C[C@@H]1[C@H]1COC4=Nc5cc(OC)c(OC)c(OC)c5[C@@]43C[C@@H]12	-0.7%	3.3%
CCc1nc(SCC(=O)N2CCC(C)CC2)c2c(=O)n(C)c(=O)n(C)c2n1	-17.2%	i
COc1ccc(S(=O)(=O)N2CCCN(CCC(=O)Nc3cccc(C(F)(F)F)c3)CC2)cc1	15.7%	4.3%
Cc1ccc(C(=O)N2C(=S)C(c3ccc(F)cc3)=NC23CCN(C)CC3)cc1	-19.0%	-29.4%
Cc1cc(C)nc(NC2=N[C@@H]3CCCC[C@H]3N2C(=O)Nc2cc(Cl)cc(Cl)c2)n1	-1.6%	-2.8%
Clc1ccc(-c2csc(N/N=C/c3ccc4c(c3)OCO4)n2)cc1	-16.4%	?
O=C(Cn1ccc2cc(S(=O)(=O)N3CCCCC3)ccc21)NCc1ccccc1Cl	-16.4%	-19.1%
Nc1cc(-c2ccc(Cl)cc2)nn1S(=O)(=O)c1cccc2nsnc12	?	?
O=C(CS(=O)(=O)c1cccc2nsnc12)N1CCN(c2cccc(C(F)(F)F)c2)CC1	-6.6%	-19.0%
O=C(CC(=O)N/N=C/c1c(F)cccc1Cl)NCc1ccccc1	-16.9%	i
CCOC(=O)/C(N=Nc1ccc(Cl)cc1)=C(/O)c1ccc([N+](=O)[O-])cc1	-7.8%	-7.4%
CCOc1ccc(/C(O)=C2\C(=O)C(=O)N(CCN(C)C)C2c2cccc(OC)c2OC)cc1Cl (centres undefined)	-7.0%	1.8%
Clc1ccc(-c2cn(-c3nc4ccccc4s3)nn2)cc1	-3.2%	-2.0%
CN(C)c1ccc(N2[C@@H](CC(=O)O)c3cc(C(F)(F)F)ccc3S2(=O)=O)cc1	-18.7%&-14.1%	i
Cc1cc(C)cc(NC(=O)CCC(=O)Nc2cc(C)on2)c1	-13.0%	-19.4%
O=C(/C=C/c1cccs1)N1CCN(Cc2ccc3c(c2)OCO3)CC1	-15.7%	-30.3%
Cc1ccc(OCC(=O)NNC(=O)CSc2nnc(-c3ccc(C)cc3)n2C)cc1	-13.2%	-17.6%
CN(Cc1cn(-c2ccccc2)nc1-c1ccc2c(c1)OCO2)Cc1nccn1C	?	-26.3%
CCO[C@@H]1OC(C(=O)NCc2nc3ccccc3[nH]2)=C[C@H](c2ccc(C(F)(F)F)cc2)[C@H]1CCCO	?	-8.5%
CCN(C(=O)CSc1ncccc1C(=O)Oc1cccc([N+](=O)[O-])c1)c1cccc(C)c1	-6.5%	-14.4%
Cc1ccc2nc(-c3cccc(NC(=O)c4cccc5c(Cl)cccc45)c3)oc2c1	-17.5%	-21.5%
Cc1ccc(NC(=O)CSCC(=O)Nc2cc(Cl)ccc2N2CCN(C)CC2)cc1	-20.8%	-18.4%
C[C@@H]1NC(=O)[C@@]2(C)[C@@H](c3ccccc3)[C@H]3COc4ccc(Cl)cc4[C@@H]3N2C1=O	-9.8%	-8.8%
CC1(C)C/C(=N\NC(=S)Nc2ccccc2F)c2cc(O)ccc2O1	-28.7%	?
COc1ccc(-c2cc(C(F)(F)F)nc(SCC(=O)N(C)Cc3ccccc3)n2)cc1	1.9%	-5.9%
O=C(Cn1cnc2c(cnn2-c2ccc(F)cc2)c1=O)N1CCN(c2ccccc2)CC1	-9.1%	-1.4%
CCOc1cccc(C2c3c(oc4ccccc4c3=O)C(=O)N2c2nc(C)c(C(=O)OC)s2)c1 (centres undefined)	12.6%	6.9%
CCc1ccc(CN(C)Cc2c(C(=O)N3CCOCC3)nc3c(C)cccn23)nc1	-7.2%	-14.4%
CCC(C)C(NC(=O)C1CCC(=O)N1C(=O)OCc1ccccc1)C(=O)NC(Cc1ccccc1)C(N)=O (centres undefined)	-12.5%	i
O=[N+]([O-])c1cccc(OCC(O)CN2CCN(S(=O)(=O)c3cc(Cl)ccc3Cl)CC2)c1 (centres undefined)	-3.3%	?
COc1ccc(NC(=O)COC(=O)CCc2cc(OC)c(OC)c(OC)c2)c([N+](=O)[O-])c1	1.5%	-1.8%
CSCCC(C(=O)N1CC2(C)CC1CC(C)(C)C2)N1C(=O)c2ccccc2C1=O (centres undefined)	-6.9%	-11.0%
CC(=O)c1ccc(C(=O)N2CCCC(CNC(=O)c3ccccc3Cl)C2)cc1 (centres undefined)	-1.6%	-1.6%
CCOCCN1CCN(c2nnc3n2-c2ccc(Cl)cc2C(c2ccccc2Cl)=NC3)CC1	-10.0%	-9.7%
CC(C)OCCCn1c(=O)c2ccccc2n2c(-c3cc(Cl)ccc3O)nnc12	9.9%	-9.1%
CC(=O)Nc1c(I)cc(I)c(C(=O)O)c1I	-7.2%	-12.6%
CCN1CCN(c2oc(-c3ccco3)nc2C#N)CC1	-11.7%	i
CCCOc1ccccc1/C=C1\SC(N)=NC1=O	?	?
COC(=O)c1cc(OC)c(=O)c2c(OC)c(OC)ccc2c1	-10.1%	-6.0%
CCOC(=O)CSC1=C(C#N)C(c2ccc(C)o2)CC(=O)N1 (centres undefined)	?	-20.5%
